# CSC inhib: cancer stem cell inhibition; cancer stem cell-like cells viability, luminescence; inhibition, % at 7.5 µM; 300,000 tested, 1.1% active; AID 2717;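 active = mean at 75% or more and at least half the replicates too; inconclusive = mean and replicates disagree; tested in HMLE shEcad cells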;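 note: 0% = median of negative and 100% = median of positive control wells; the first replicate is given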
# MT1-MMP act inh: blocks activation of human MT1-MMP | 360,000 tested, 0.061% active | P50281 | GFP/RFP ratio change, % at 20 µM | HT1080 RFP-PRO-GFP cells, GFP/RFP ratio fluorescence, overnight; percent of plate control window, DMSO zero;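 active = GFP/RFP ratio change of at least 30% with cell ATP level not reduced by more than half and red fluorescence within 50% of control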; note: strong numbers were not always called active
#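 Assay system: HT1080 RFP-PRO-GFP cells. Benchmarks: DMSO vehicle wells and RFP-L50D-GFP reporter cell wells. Times: overnight cell settling, then overnight compound exposure, 37 °C, 5% CO2. Compound: 20 µM single dose, 1% DMSO. Read-out basis: GFP/RFP fluorescence ratio.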
# Rce1 inh: inhibitors of yeast Ras-converting enzyme; Q03530; yeast membranes, quenched prenylated peptide cleavage fluorescence; calls only; 290,000 tested, 0.27% active; AID 2563;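 active = fall in fluorescence gain of 50% or more versus controls, with final raw signal at or below 3038400; inconclusive = same 50% fall but final raw signal above 3038400; inactive = fall in fluorescence gain under 50%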;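 note: plate controls were neutral control wells for no effect and wells lacking membranes for full effect; tested at 10 µM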
# eIF4H FP inh: inhibitors of RNA binding by human eIF4H; eIF4H fluorescence polarization binding assay; 290,000 tested, 0.94% active; inhibition, % at 35 µM;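 active = 50% or more with normal probe brightness, or confirmed in later tests; inconclusive = above 50% with abnormal brightness, or retests that disagree; inactive = below 50% or failed in later tests; about a fifth of its hits are not listed in these tables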;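 note: calls also rest on retests at 20 µM and on dose response follow-up; 0% = protein and probe with vehicle and 100% = probe without protein; strong numbers were not always called active; many hits fall short of the cut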
# PABP polyA inh: blocks human PABP binding to poly(A) RNA | P11940 | fluorescence polarization | inhibition, % at 35 µM | 290,000 tested, 1% active;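 active = 50% or more with normal probe brightness, or confirmed in later tests; inconclusive = above 50% with abnormal brightness, or retests that disagree; inactive = below 50% or failed in later tests; about a fifth of its hits are not listed in these tables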;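 note: calls also rest on retests at 20 µM and on dose response follow-up; controls were probe without protein and protein plus probe with vehicle; some compounds called inactive have numbers as strong as hits; many hits fall short of the cut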
# Target sequence (P11940 whole entry, looked up): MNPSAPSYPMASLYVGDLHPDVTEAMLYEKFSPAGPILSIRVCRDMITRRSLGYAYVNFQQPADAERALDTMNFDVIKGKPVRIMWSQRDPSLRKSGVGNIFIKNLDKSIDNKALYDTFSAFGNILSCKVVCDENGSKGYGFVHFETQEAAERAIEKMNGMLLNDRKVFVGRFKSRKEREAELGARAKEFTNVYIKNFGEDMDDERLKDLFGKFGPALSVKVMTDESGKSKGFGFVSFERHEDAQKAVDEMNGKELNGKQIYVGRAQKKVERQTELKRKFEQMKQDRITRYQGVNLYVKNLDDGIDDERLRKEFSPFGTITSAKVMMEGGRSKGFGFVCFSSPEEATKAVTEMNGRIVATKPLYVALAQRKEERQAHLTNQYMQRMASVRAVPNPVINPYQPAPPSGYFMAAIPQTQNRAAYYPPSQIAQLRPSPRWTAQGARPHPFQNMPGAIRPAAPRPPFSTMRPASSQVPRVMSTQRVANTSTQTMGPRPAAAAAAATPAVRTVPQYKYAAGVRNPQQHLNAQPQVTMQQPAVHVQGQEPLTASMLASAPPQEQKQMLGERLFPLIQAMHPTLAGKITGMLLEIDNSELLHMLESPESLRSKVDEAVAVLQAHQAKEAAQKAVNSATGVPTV
# Env fusion inh: inhibitors of HIV Env-mediated cell fusion; HeLa-JRFL Env/CEM21 cell fusion, luciferase; inhibition, % at 12.3 µM; 360,000 tested, 1.1% active;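 active = mean replicate inhibition score of at least 50 and every replicate individually at or above 50; inconclusive = only one of the two criteria met; inactive = mean below 50 and not all replicates reaching 50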;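 note: 0% = plate neutral controls and 100% = maraviroc near 300 nM; one replicate is shown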
# Yeast UUG start: alters start codon recognition fidelity in yeast | S. cerevisiae UUG-firefly luciferase reporter, luminescence/redox ratio | 350,000 tested, 0.13% active | AID 602363 | activity score, % at 18.7 µM;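 active = replicate mean at a twofold rise or more, about +100% in these data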;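 note: firefly luciferase made from a UUG start codon reports start codon fidelity; reporter light over untreated wells divided by growth signal over untreated wells; some hits fall short of that in this replicate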
# MT1-MMP act inh RFP: also measured in MT1-MMP act inh; calls as there; RFP signal change, %; measured here: RFP expression control read;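 0 = vehicle wells; hits needed this value within 50% of zero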
# Active calls of the source: *; i = inactive; ? = inconclusive; . = no result given.
SMILES,CSC inhib,MT1-MMP act inh,MT1-MMP act inh RFP,Rce1 inh,eIF4H FP inh,PABP polyA inh,Env fusion inh,Yeast UUG start
Cc1cccc(CSc2nnc(NC(=O)c3ccco3)s2)c1,-6,-3,0,i,4,-13,-133,-21
Cc1ccc(NC(=O)Cn2cc(S(=O)(=O)c3ccc(F)cc3)c(=O)c3cc(F)ccc32)cc1,-15,2,6,i,-4,7,-63,-21
CCc1ccc2nc(N3CCN(C)CC3)c(C#N)cc2c1,.,-2,-1,i,4,3,-47,-10
O=C1CC/C=C\C[C@@H](CC(=O)N(CCO)Cc2ccccc2)C(=O)NCCO1,2,2,6,.,.,.,8,29
CC(C)OP(=O)(OC(C)C)C1(NS(=O)(=O)c2ccc(Cl)cc2)C=C(Cl)C(=O)C(Cl)=C1,12,-2,1,i,-15,0,5,-7
CCc1ccccc1NC(=O)c1ccc(NS(C)(=O)=O)cc1,-7,-1,1,i,-7,-8,0,.
O=C(CSc1nncc(=O)[nH]1)NCc1ccccc1,-8,-3,4,i,-3,-3,-1,.
COc1ccccc1NC(=O)Cn1cnc2c(nc3n2CCCCC3)c1=O,-5,-1,3,i,12,5,-19,-16
CC(=O)N1CC(C(=O)Nc2ccc3c(c2)OCO3)Oc2ccccc21 (stereo not given),25,1,4,.,.,.,-13,-3
CCOC(=O)N1CCC(NC(=O)c2ccc3c(Cl)c4c(nc3c2)CCCC4)CC1,15,-1,-6,.,-4,4,20,-5
Cc1ccc(CNC(=O)C(c2ccccc2)c2ccccc2)cc1,-8,-1,-2,i,-7,-4,17,-8
CSc1ncnc2c1ncn2CCCNCc1ccc(C)o1,.,3,3,.,.,.,-91,-13
COc1ccccc1CNC(=O)CCC(=O)Nc1nnc(C(C)C)s1,.,2,-4,i,-3,0,-35,.
O=C(Cn1cnc2ccccc21)NC(c1ccccc1)c1ccccc1,-9,3,-4,i,-2,-7,-86,-13
CC(C)(C)OC(=O)N1CCC(Cc2cc(-c3cccc(Br)c3)no2)(C(=O)O)CC1,10,3,1,i,-15,2,-5,10
CC(=O)N1N=C(c2ccc(Cl)cc2)OC1c1ccc(C(C)C)cc1 (stereo not given),.,10,4,i,-4,3,-20,13
O=C(C/C=N\OCc1ccc([N+](=O)[O-])cc1)Nc1ccc(Br)cc1,-2,3,0,.,0,2,10,.
Cc1cc(C(=O)N/N=C/c2cccc(Cl)c2Cl)no1,-11,7,2,i,2,-1,-75,-15
CC(=O)N1CCn2c3c(c4cc(C)ccc42)CCCC31 (stereo not given),2,-3,4,i,2,-1,-20,1
CCOc1ccc(C(=O)NC(=S)Nc2ccccc2N2CCCCC2)cc1[N+](=O)[O-],?,-5,-5,i,7,20,-46,.
Cc1ccnc(SCc2cc(=O)c(OC(=O)c3ccc(S(=O)(=O)N(C)C)cc3)co2)n1,.,4,4,i,-1,-14,13,.
Cc1cccc(-n2c(SCc3cc(=O)n4ccsc4n3)nc3ccccc3c2=O)c1,-18,-14,-5,i,6,-15,.,-8
COc1ccc(-n2ncc(S(=O)(=O)c3ccccc3)c2-c2ccc(Cl)cc2)cc1,44,-10,-14,i,4,5,60*,-9
Cn1cc(CN2CCCCC2c2ccccn2)c(-c2ccc3c(c2)OCCO3)n1 (stereo not given),-9,6,4,i,7,1,3,.
CC(C)OCC(O)Cn1c(N2CCCC2)nc2c1c(=O)[nH]c(=O)n2C (stereo not given),-7,1,-1,i,1,10,-16,14
# Later entries
SMILES,CSC inhib,MT1-MMP act inh,MT1-MMP act inh RFP,Rce1 inh,eIF4H FP inh,PABP polyA inh,Env fusion inh,Yeast UUG start
CSc1ccc(NC(=O)NCc2cccnc2)cc1,-1,1,1,i,-6,7,-6,-3
COC(=O)CCc1c(C)c(C(=O)c2cc(F)c(F)c(F)c2F)c2ccccn12,65,.,.,i,-1,4,12,.
Oc1ccc(N2CCN(Cc3c(-c4ccccc4)nc4ccccn34)CC2)cc1,36,-15,-5,i,-11,5,23,-16
Cc1ccc(C(C)C)cc1NC(=O)Nc1ccc([N+](=O)[O-])cc1,89*,-16,-25,i,4,6,-8,.
Cc1csc(NC(=O)CCCSc2nc3ccccc3s2)n1,-4,2,-4,i,1,-12,-13,-13
Cc1ccc2nnn(Cc3cccc(C(C)(C)C)c3O)c2c1,2,1,-19,i,.,.,22,-18
COc1ccc(CNC(=O)C2CCN(S(=O)(=O)N3CCC(C)CC3)CC2)c(OC)c1,.,2,0,.,.,.,9,-17
Cc1nc(NC(=O)CSc2nc3cccnc3n2C2CCCCC2)sc1C,-4,-1,-3,i,-9,-10,.,-13
Cc1cc(CN2CCN(CCC#N)CC2)c(O)c(C2(C)CCCCC2)c1,-21,-4,-8,.,13,-2,-3,-7
CCn1c(C(=O)N2CCc3ccccc3C2)cc2sccc21,2,7,3,i,7,-3,6,0
Cc1ccc(NC(=O)c2cccs2)cc1NC(=O)c1cccnc1,5,1,-2,i,3,20,17,.
COc1cc(OC)cc(C(=O)Nc2ccc(N3CCOCC3)cc2N2CCOCC2)c1,-12,-5,-3,.,.,.,.,-7
O=C1CCC(C(=O)Nc2ccc(OC(F)F)cc2)N1 (stereo not given),-2,3,4,i,-7,-9,-75,-12
COCCCNC(=O)c1ccc(CN2CCc3ccccc3C2)cc1,-10,-1,1,i,-4,1,4,.
CCN(C(=O)c1coc(=O)c(Br)c1)c1ccc2c(c1)OCO2,-11,-31,3,i,?,?,.,-19
Cc1nc(Nc2ccc3c(c2)OCO3)c2oc3ccccc3c2n1,26,10,2,i,-2,10,-114,-5
CC(=O)NC1CC2CCCC(C1)N2C(=O)Nc1ccc(Cl)c(C(F)(F)F)c1 (stereo not given),-1,-3,5,.,-17,0,-111,.
O=C1CCC(C(=O)OC(C(=O)c2c[nH]c3ccccc23)c2ccccc2)=NN1 (stereo not given),6,1,1,i,-6,-2,13,-7
CCNC(=S)N(Cc1c(C)noc1C)c1ccccc1,-12,4,-1,i,7,-15,.,.
COc1ccccc1N1CCN(S(=O)(=O)CCNC(=O)C2CC2)CC1,7,3,6,i,.,.,-1,-11
Cc1cccc(NC(=O)/C(C#N)=C\c2cc(C)n(-c3ccc(C(=O)O)cc3)c2C)c1,-2,-7,7,.,19,27,9,.
Cc1ccc(N2C(=O)NC(C(F)(F)F)(C(F)(F)F)C3=C2CC(C)(C)CC3=O)cc1,2,2,12,i,-5,6,.,3
COCCCn1c(SCC(=O)NCc2ccccc2)nc2ccccc2c1=O,-7,2,-1,i,-4,21,43,12
c1ccc(CN2CCN(c3ncccn3)CC2)cc1,-9,-1,1,i,8,17,-2,-5
Nn1c(COc2ccccc2F)nnc1SCC(=O)NC1CCCCC1,-3,-4,0,i,.,.,5,1

# 3 entries drawn at random from those above:
SMILES,CSC inhib,MT1-MMP act inh,MT1-MMP act inh RFP,Rce1 inh,eIF4H FP inh,PABP polyA inh,Env fusion inh,Yeast UUG start
Nn1c(COc2ccccc2F)nnc1SCC(=O)NC1CCCCC1,-3,-4,0,i,.,.,5,1
Cc1ccc(NC(=O)c2cccs2)cc1NC(=O)c1cccnc1,5,1,-2,i,3,20,17,.
Oc1ccc(N2CCN(Cc3c(-c4ccccc4)nc4ccccn34)CC2)cc1,36,-15,-5,i,-11,5,23,-16

# Next section.
SMILES,CSC inhib,MT1-MMP act inh,MT1-MMP act inh RFP,Rce1 inh,eIF4H FP inh,PABP polyA inh,Env fusion inh,Yeast UUG start
CC(OC(=O)c1ccc(NC(N)=O)cc1)C(=O)Nc1ccc2c(c1)OCCO2 (stereo not given),-8,2,1,.,.,.,-17,-6
CCCc1cc(C(=O)NC2CCCCC2)no1,0,9,3,i,-15,-2,-47,-13
CC(=O)c1ccc(OCC(=O)Nc2ccc3c(c2)OCO3)cc1,.,-1,-2,.,.,.,15,-12
COc1ccccc1NC(=O)CSc1ccc(-c2ccccn2)nn1,21,4,3,i,-4,12,-36,-31
COc1ccc(C(C(=O)NC2CCCC2)N(C(=O)c2snc(-c3ccc(F)cc3)c2N)c2ccc(OC)cc2)cc1 (stereo not given),-9,-10,-16,i,4,12,12,-13
Cc1ccc(S(=O)(=O)NCCC(=O)NCC(c2ccco2)N2CCCCC2)cc1C (stereo not given),39,-2,1,i,.,.,-34,-7
COc1cccc(C2C(C(=O)c3ccc(C)o3)=C(O)C(=O)N2CCN2CCOCC2)c1OC (stereo not given),-5,-2,1,i,9,14,9,-13
CC1=NN(c2ccc(C)cc2C)C(=O)C1C(c1ccccc1O)C1C(=O)N(c2ccc(C)cc2C)N=C1C (stereo not given),0,9,2,i,1,-6,-5,-18
CCN1C(=O)c2ccc(C(=O)NCc3ccccc3)cc2C1=O,-4,-1,4,i,0,9,.,-13
Cc1c(Cl)cccc1NC(=S)N(Cc1cccnc1)Cc1ccccc1Cl,-6,-7,-6,i,0,2,-13,.
CCCc1c(C(=O)N/N=C(\C)c2ccc(CC(C)C)cc2)nnn1-c1nonc1N,.,5,2,.,.,.,-39,-7
COc1c(F)c(F)c(C(=O)O)c(Nc2cc(C)cc(C)c2)c1F,.,-14,1,i,8,5,-2,-2
Cc1ccc(Cl)cc1N1CCN(C(=O)COc2ccc(S(=O)(=O)NC(C)C)cc2)CC1,-18,9,-30,i,-2,7,39,-9
CC1CCN(C(=O)CSc2nncn2C)CC1,-4,6,8,i,0,0,.,-7
CCOCCCn1c(SC(C(=O)Nc2cc(C)ccc2C)c2ccccc2)nnc1-c1ccc(Cl)cc1 (stereo not given),55,3,1,i,-4,4,-3,.
O=C(CCCN1C(=O)/C(=C/c2ccc3c(c2)OCO3)SC1=S)Nc1cccc(C(=O)O)c1,-12,2,3,i,-8,12,9,-24
O=C(Nc1ccccn1)c1ccc(CN(c2ccccc2)S(=O)(=O)c2ccccc2)cc1,23,-5,-16,i,6,-12,-21,8
O=C1CCC/C1=C/Nc1cccc(F)c1,-1,0,1,i,-5,7,-12,.
CC(=O)CC1(O)C(=O)N(Cc2ccccc2)c2ccccc21 (stereo not given),.,4,2,i,-3,3,-76,-17
CCOC(=O)C1=C(C(F)(F)F)Nc2ncnn2C1c1ccc(OC)c(OC)c1OC (stereo not given),-10,-4,1,i,-1,0,-17,-10
CC(=O)C(Cc1cnc(Cl)s1)(Cc1cnc(Cl)s1)C(C)=O,5,3,1,i,-9,-19,.,-16
O=C1/C(=C/c2ccc(F)cc2)SC(=S)N1CC(=O)N1CCCCC1c1cccnc1 (stereo not given),15,6,4,i,-10,-1,-1,3
c1ccc(Cc2nnc3sc(-c4ccccn4)nn23)cc1,.,-1,3,i,4,-5,-1,-25
O=C(CN(CCc1ccccc1)S(=O)(=O)c1ccc(Br)cc1)N/N=C/c1ccccc1C(=O)O,9,-5,-2,i,4,10,-5,.
COc1ccc(CCNC(=O)Cc2cccc(C(F)(F)F)c2)cc1OC,-12,3,-1,i,-18,-4,-5,-10
CCS(=O)(=O)N1CCN(c2nc(-c3ccccc3)cs2)CC1,-11,-3,0,i,-6,3,-37,-8
CC1=C([N+](=O)[O-])C(c2ccccc2)C2=C(N1)c1ccccc1C2=O (stereo not given),52,13,-9,i,-3,-5,120*,-17
CCC(=O)Nc1c(-c2ccc(Cl)cc2)c(=O)c2ccccc2n1C,8,.,.,i,-4,2,-11,2
CC(=O)C[C@H](O)CC(=O)[C@@H]1OC(=O)CCCCCCc2ccccc21,11,-1,3,.,.,.,3,-8
N=C1C(c2nc3ccccc3s2)=C(O)CN1NC(=O)c1ccccc1[N+](=O)[O-],10,-1,2,i,10,-7,0,.

# Single records, as listed above. Order of screens: CSC inhib | MT1-MMP act inh | MT1-MMP act inh RFP | Rce1 inh | eIF4H FP inh | PABP polyA inh | Env fusion inh | Yeast UUG start
# Shown for CC(=O)C[C@H](O)CC(=O)[C@@H]1OC(=O)CCCCCCc2ccccc21 : 11 | -1 | 3 | . | . | . | 3 | -8
# Shown for O=C1CCC/C1=C/Nc1cccc(F)c1 : -1 | 0 | 1 | i | -5 | 7 | -12 | .
